Assay outcomes from PubChem.
HSV augment = HSV replication enhancement; maximum fold increase; 220,000 tested, 0.005% active; HSV replication augmentation in cells, fold increase;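 active = peak rise of 1.5-fold or more in the series; tested in PC3 cells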;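 also: first round at 10 µM; read as green reporter fluorescence; hits show the peak of a series up to 25 µM; 1 = signal of infected wells without compound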
INS promoter inh = TRM-6 insulin promoter activity inhibition; 130,000 tested, 0.9% active; inhibition, % at 2 µM; AID 1273; TRM-6 cells (human fetal islet line), insulin promoter-eGFP reporter, imaging; reporter expression induced with tamoxifen;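 active = inhibition above the mean plus 3 SD, with well images judged a real hit on visual review, cut at about 60% in these data, passing the limit was not always enough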
PKD1 inh = blocks activity of human protein kinase D1 | Q15139 | PKD1 kinase fluorescence polarization assay | inhibition, %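 (about 10 µM by stock and volumes)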 | 200,000 tested, 0.056% active | AID 797;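 active = inhibition of 50% or more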;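 also: controls were vehicle for no effect and a reference inhibitor for full effect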
Target sequence (Q15139 whole entry, looked up): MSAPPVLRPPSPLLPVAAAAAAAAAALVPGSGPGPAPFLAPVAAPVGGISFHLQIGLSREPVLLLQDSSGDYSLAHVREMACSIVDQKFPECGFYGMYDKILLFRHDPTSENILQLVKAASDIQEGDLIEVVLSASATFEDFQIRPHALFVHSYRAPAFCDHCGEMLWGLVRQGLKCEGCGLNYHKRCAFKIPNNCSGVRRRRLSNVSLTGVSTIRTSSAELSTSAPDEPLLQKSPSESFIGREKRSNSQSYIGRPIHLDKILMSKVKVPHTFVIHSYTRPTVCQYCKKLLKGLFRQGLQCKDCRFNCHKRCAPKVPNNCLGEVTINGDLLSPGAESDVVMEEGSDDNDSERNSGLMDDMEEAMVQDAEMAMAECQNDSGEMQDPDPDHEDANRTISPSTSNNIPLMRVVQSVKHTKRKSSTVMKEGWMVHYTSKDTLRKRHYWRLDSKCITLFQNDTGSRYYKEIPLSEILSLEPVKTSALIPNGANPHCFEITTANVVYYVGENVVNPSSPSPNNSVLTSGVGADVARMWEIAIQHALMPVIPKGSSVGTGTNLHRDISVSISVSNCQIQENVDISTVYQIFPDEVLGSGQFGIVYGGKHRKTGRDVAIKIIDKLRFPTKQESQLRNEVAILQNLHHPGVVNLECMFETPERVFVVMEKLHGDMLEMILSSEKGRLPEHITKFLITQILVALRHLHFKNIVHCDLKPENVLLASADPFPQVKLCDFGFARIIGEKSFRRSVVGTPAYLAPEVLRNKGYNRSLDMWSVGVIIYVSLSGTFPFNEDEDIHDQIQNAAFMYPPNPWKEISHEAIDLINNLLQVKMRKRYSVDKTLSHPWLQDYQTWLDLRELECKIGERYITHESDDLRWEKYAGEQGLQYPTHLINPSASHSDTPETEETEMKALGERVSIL
RGS16-Gao = regulators of human RGS16-Galphao interaction; O15492+P09471; bead-based flow cytometry RGS16-Galphao binding, fluorescence; actives lie on both sides; binding response (% of control), % at 10 µM; 220,000 tested, 0.38% active; AID 1441;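 active = below 25% or above 175%, edge rows of some plates excepted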;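 also: Galphao activated by GDP with aluminum fluoride before binding; 100% = wells without compound and 0% = beads without RGS; some results beyond the cut were filed as inactive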
GALR2 ag = GALR2 (human) receptor agonism. O43603. GALR2-expressing cells, agonist activation read-out. activation, %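 (tested at 5 µM)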. 140,000 tested, 0.48% active;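 active = above mean plus 3 SD of all compounds, about 5% in these data, not always enough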;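 also: 0% = vehicle buffer wells and 100% = reference agonist at full effect; tested in CHO reporter cells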
INS promoter inh cell count = second read-out of INS promoter inh, no call of its own (marks repeat the call); normalized cell count, %; measured here: cell count, toxicity; reference of the scale not given here;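 cells exposed to compound for 48 h; stained nuclei by imaging scaled within each plate; lower means fewer cells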
HSV augment primary fold = also measured in HSV augment; calls as there; fold increase; compound at 10 µM; measured here: primary screen fold increase 10 uM; tested in PC3 cells;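 GFP signal in the first replicate; 1 = infected wells without compound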
* = called active by the depositor; i = inactive; x = not tested or not shown.

entry	SMILES	HSV augment	HSV augment primary fold	INS promoter inh	INS promoter inh cell count	PKD1 inh	RGS16-Gao	GALR2 ag
1	O=C(CSc1nccc(=O)[nH]1)N1N=C2/C(=C/c3ccco3)CCCC2C1c1ccco1 (centres undefined)	i	1.05	x	x	1.2	94.7	x
2	COc1ccc(/C=C/C(=O)O)cc1COc1ccccc1C	i	1	-43.3	98.0	-9.7	103.6	-0.6
3	O=c1cc(-c2ccccc2Cl)oc2c(NS(=O)(=O)c3ccccc3C(F)(F)F)ccc(O)c12	i	0.87	x	x	x	102.8	x
4	N#Cc1nc(-c2ccc(OCc3ccc(Cl)cc3)cc2)oc1N1CCOCC1	i	0.64	x	x	-7.4	100.5	-2.0
5	CSc1cccc(NC(=O)C2CCCN2S(=O)(=O)c2ccc(Br)s2)c1 (centres undefined)	i	0.98	-40.0	81.1	-5.8	106.3	-0.5
6	CCCNC(=O)c1ccc2nc(-c3ccccc3)c(-c3ccccc3)nc2c1	i	1.03	-17.4	82.2	1.1	101.0	-0.2
7	CCOC(=O)C1=C(C)N(CCCC(=O)NCc2ccc3c(c2)OCO3)C(=O)NC1c1ccc(Br)cc1 (centres undefined)	i	0.77	25.0	71.0	-5.1	103.9	-2.6
8	COc1ccc(-c2nc[nH]c2[N+](=O)[O-])cc1	i	0.96	x	x	-7.8	99.7	x
9	CCCCSc1nc(O)cc(=O)n1CC	i	0.91	58.8	76.0	2.1	97.3	x
10	COc1ccc(Cl)cc1NC(=O)C(C)N(C)Cc1ccc(C(F)(F)F)cc1 (centres undefined)	i	1	x	x	-5.2	103.7	-0.6
11	CC1CN(c2cc(=O)n(-c3cccc(Br)c3)c(=O)[nH]2)CC(C)O1 (centres undefined)	i	1.02	x	x	-14.1	99.0	x
12	Cc1cc(NC(=O)CSc2nnc(C)n2-c2ccccc2)no1	i	1.01	-16.7	126.8	5.5	98.6	x
13	COc1ccccc1-c1nc(SCC(=O)O)n[nH]1	i	1.02	9.1	81.4	-6.8	103.4	-3.5
14	CCN(CC)C(=O)C1=C(C)Nc2ncnn2C1c1cccnc1 (centres undefined)	i	0.97	x	x	-13.0	102.6	x
15	COc1cc(NS(=O)(=O)c2ccc(N/C=C(\C=O)c3nc4ccccc4o3)cc2)nc(OC)n1	i	1.09	9.4	150.4	-1.2	107.0	-0.9
16	COCCOC(=O)c1cc(C(=O)c2cc(F)ccc2O)coc1=N	i	1.06	51.4	36.8	-14.2	102.5	-1.0
17	COc1ccc2c(c1)C(C)CC(C)(C)N2C(=O)NC1CCCCC1 (centres undefined)	i	1.04	x	x	-3.0	101.0	-0.4
18	Cc1ccc(S(=O)(=O)N2CC=C(C(=O)NCCC(C)C)CC2)cc1	i	0.94	x	x	x	90.6	x
19	COc1ccc2cc(C(=O)NCCO)sc(=O)c2c1OC	i	0.86	8.3	106.7	-14.5	106.0	-2.2
20	O=c1[nH]cnc2cc(Cl)ccc12	x	x	44.4	108.7	1.6	97.2	-1.2
21	COc1ccccc1OCCOC(=O)Nc1ccccc1	i	0.9	x	x	1.1	97.4	0.3
22	C=CCOc1ccc(C2C(C#N)=C(N)N(Nc3ccccc3)C3=C2C(=O)CC(C)(C)C3)cc1OC (centres undefined)	i	0.89	x	x	7.4	103.7	2.4
23	Cc1cc(/C=C2/C(=N)N3C(=NC2=O)SN=C3S(C)(=O)=O)c(C)n1-c1ccccc1F	i	1.09	50.0	65.9	-1.6	102.3	x
24	NS(=O)(=O)c1ccc(NCc2cc(Cl)ccc2OCc2ccc(F)cc2)cc1	i	0.85	0.0	138.4	-2.1	103.2	0.5
25	O=[N+]([O-])c1ccc(SCCO)nc1SCCO	i	0.96	x	x	x	94.8	x
26	Cc1cnc(NC(=O)C(C)N2C(=O)C3CC=CCC3C2=O)s1 (centres undefined)	i	0.78	x	x	6.8	87.7	-2.7
27	COc1ccc(CCn2c(=S)[nH]c3ccc(N4CCOCC4)cc3c2=O)cc1OC	i	0.9	x	x	-2.9	99.7	x
28	CCNc1nc(CSc2ccccc2)nc2sc(C)c(C)c12	i	0.91	x	x	-1.2	99.7	-0.2
29	Cn1cc(C(=O)c2ccc(Cl)cc2)cc1-c1nc2ccccc2n1C	i	1	x	x	-6.1	86.0	-0.7
30	Cc1nnc(SCc2cc(=O)[nH]c(/N=C(\N)Nc3ccccc3Sc3ccccc3)n2)s1	i	0.89	x	x	-0.2	104.8	x

The results go on:
entry	SMILES	HSV augment	HSV augment primary fold	INS promoter inh	INS promoter inh cell count	PKD1 inh	RGS16-Gao	GALR2 ag
31	Cn1c(=O)c2c(nc(Cl)n2Cc2ccc(Cl)c(Cl)c2)n(C)c1=O	x	x	13.9	145.6	-4.3	103.4	-1.2
32	COc1cccc2[nH]c3c(Cl)ncnc3c12	i	0.98	x	x	0.4	103.6	0.3
33	O=C(CCC(=O)c1ccc(Br)cc1)Nc1cccc(C(F)(F)F)c1	i	0.95	-6.7	93.9	-0.9	99.1	-1.9
34	COc1ccc(C(OC(=O)c2ccco2)C(=O)NCc2ccc(C)cc2)cc1 (centres undefined)	i	0.93	-45.7	110.5	-10.6	99.5	-1.4
35	O=C(Nn1cnnc1)c1cc(-c2cccc(Br)c2)nc2ccccc12	i	0.81	x	x	x	100.8	x
36	Cc1ccc(N2C(=O)CC(N3CCN(c4ccccn4)CC3)C2=O)cc1 (centres undefined)	i	0.94	x	x	2.3	109.5	x
37	COC(=O)c1ccc(C23CC4(C2)[C@H](CN(Cc2ccc(-c5ccccc5)cc2)[C@@H]4c2ccccc2)C3c2ccccc2)cc1 (some centres undefined)	i	0.925	x	x	x	98.9	x
38	CN1C(=O)C(O)(C2COC(C)(C)CC2=O)c2cc(Br)ccc21 (centres undefined)	i	0.89	51.7	111.6	-4.5	96.9	-4.3
39	Nc1ccccc1Sc1ccccc1[N+](=O)[O-]	i	0.84	15.4	143.4	-8.7	103.2	0.4
40	COc1ccc(S(=O)(=O)N(CCCN2CCOCC2)Cc2cccc(OC)c2OC)cc1	i	0.92	-36.1	95.8	3.2	104.0	-0.8
41	CCN1CCN(c2ccc(NC(=O)c3cnccn3)cc2)CC1	i	0.86	x	x	6.7	112.3	x
42	Cc1ccc(NC(=O)CSc2ccc3nnc(CCNC(=O)c4ccccc4)n3n2)c(C)c1	i	0.92	x	x	2.0	73.0	0.2
43	Cn1c(-c2ccc3c(c2)OCO3)cnc1NCc1ccccc1	i	0.83	6.5	33.0	-3.6	90.7	-1.5
44	O=C(NC(C(=O)c1ccccc1)N1CCCCC1)c1ccccc1 (centres undefined)	i	0.95	-9.4	82.9	-15.1	105.6	-2.4
45	Clc1ccccc1-c1nc2ccccc2c2nc3ccccc3n12	i	1.26	18.4	79.0	1.2	100.4	1.8
46	Cc1ccc(NC(=O)CCN2CCN(C/C=C/c3ccccc3)CC2)cc1	i	0.91	-14.3	87.5	-9.8	58.4	-2.8
47	CCCOc1ccc(C(=O)NCC(c2ccco2)N(C)C)cc1 (centres undefined)	i	0.97	14.7	77.7	6.0	104.8	-2.0
48	CC(C)C(C)NC(=O)COc1ccc(-c2ccccc2)cc1 (centres undefined)	i	0.76	-29.0	111.7	0.3	100.3	0.1
49	CC(=O)NCCC(=O)N1CCc2c([nH]c3ccccc23)C1c1cccc(Cl)c1 (centres undefined)	i	1.01	x	x	0.3	102.6	x
50	Cc1cc(C)nc(NC2=NCC(=O)N2c2ccc(F)c(Cl)c2)n1	i	0.94	11.4	144.6	1.6	103.2	-2.6
51	O=C1CCCCC1Sc1nnc(Cc2cccs2)n1CCc1ccccc1 (centres undefined)	i	0.977	34.6	129.5	-14.9	99.5	-1.1
52	O=C(/C=C/c1c(Cl)cccc1Cl)N1CCN(c2ncccn2)CC1	i	0.94	46.5	137.7	-2.8	58.4	-2.4
53	Fc1ccc2nc(Nc3nc4cc5c(cc4s3)OCO5)sc2c1	i	0.86	x	x	6.5	100.7	2.1
54	Cc1cnc(-c2nnc(N(C)C(=O)C3CCOC3)s2)cn1 (centres undefined)	x	x	23.8	136.2	-4.8	100.3	-0.2
55	CCc1ccccc1NC(=S)N(CCCN(C)C)Cc1cc2cc3c(cc2[nH]c1=O)OCO3	i	0.98	20.0	77.6	0.8	93.6	x
56	O=S(=O)([O-])C/C(=C\c1ccc(Cl)cc1)c1cc[n+](CCO)cc1	i	1.07	x	x	-3.5	107.1	x
57	Cn1c(=S)[nH]c2c(c1=O)C(C)(C)Cc1ccccc1-2	i	0.61	33.3	34.1	-3.5	110.1	x
58	O=C(/C=C/c1cccs1)N1CCC2(CC1)Oc1ccc(Cl)cc1C(=O)C21CC(c2ccccc2)=NO1 (centres undefined)	i	0.87	x	x	x	96.7	x
59	CC(=O)N1CCN(c2ccc([N+](=O)[O-])c(NCC3CCCO3)c2)CC1 (centres undefined)	i	0.95	-8.3	120.6	6.9	114.6	-2.5
60	COc1cc(-c2nnc(COc3ccc4cc(Br)ccc4c3)o2)cc(OC)c1OC	i	0.97	-3.1	117.2	1.3	101.2	-1.7

More entries:
entry	SMILES	HSV augment	HSV augment primary fold	INS promoter inh	INS promoter inh cell count	PKD1 inh	RGS16-Gao	GALR2 ag
61	Cc1ccccc1N/N=C1\CCCNC1=O	i	1.02	0.0	152.8	-6.1	98.6	-1.6
62	CCC(=O)c1c[nH]c(C(=O)NCCc2ccccn2)c1	i	0.96	29.6	64.4	-13.8	95.8	-0.3
63	Nc1ccnn1Cc1cccnc1	i	1.04	-18.2	109.2	-10.9	100.3	-0.2
64	O=C(O)CCCCCn1c(O)c(C=C2N=c3ccccc3=N2)sc1=S	i	0.78	x	x	-7.5	96.8	-2.2
65	CCOc1ccc(C(=O)CN2CCN(S(=O)(=O)c3ccc(Cl)cc3)CC2)cc1	i	1.18	50.0	65.1	-9.1	101.3	0.4
66	CC(=O)N1CCN(Cc2nc3cc(NC(=O)COc4ccccc4)ccc3n2C)CC1	i	1.07	x	x	-2.5	95.6	x
67	Cc1c(NC(=O)c2ccc(S(=O)(=O)N(C)c3ccccc3)cc2)c(=O)n(-c2ccccc2)n1C	i	0.95	-50.0	74.8	-2.2	104.2	x
68	COc1ccc(C(C)(C)C)cc1NC(=S)NCCN1CCOCC1	i	1.1	x	x	3.5	97.4	-0.9
69	CCc1cccc(C)c1NC(=O)C1CN(S(=O)(=O)c2ccccc2)CCN1S(=O)(=O)c1ccccc1 (centres undefined)	i	1.17	-7.7	83.0	-6.3	96.1	-1.2
70	CCN(CC)C(=O)CNC(=O)Cc1ccc(Cl)cc1	i	0.79	-26.8	87.4	-7.7	99.4	-1.8
71	Nc1nnc(-c2ccc(Cl)cc2Cl)s1	i	0.97	x	x	-2.4	103.0	x

In the list so far, 7 contain bromine:
entry	SMILES	HSV augment	HSV augment primary fold	INS promoter inh	INS promoter inh cell count	PKD1 inh	RGS16-Gao	GALR2 ag
5	CSc1cccc(NC(=O)C2CCCN2S(=O)(=O)c2ccc(Br)s2)c1 (centres undefined)	i	0.98	-40.0	81.1	-5.8	106.3	-0.5
7	CCOC(=O)C1=C(C)N(CCCC(=O)NCc2ccc3c(c2)OCO3)C(=O)NC1c1ccc(Br)cc1 (centres undefined)	i	0.77	25.0	71.0	-5.1	103.9	-2.6
11	CC1CN(c2cc(=O)n(-c3cccc(Br)c3)c(=O)[nH]2)CC(C)O1 (centres undefined)	i	1.02	x	x	-14.1	99.0	x
33	O=C(CCC(=O)c1ccc(Br)cc1)Nc1cccc(C(F)(F)F)c1	i	0.95	-6.7	93.9	-0.9	99.1	-1.9
35	O=C(Nn1cnnc1)c1cc(-c2cccc(Br)c2)nc2ccccc12	i	0.81	x	x	x	100.8	x
38	CN1C(=O)C(O)(C2COC(C)(C)CC2=O)c2cc(Br)ccc21 (centres undefined)	i	0.89	51.7	111.6	-4.5	96.9	-4.3
60	COc1cc(-c2nnc(COc3ccc4cc(Br)ccc4c3)o2)cc(OC)c1OC	i	0.97	-3.1	117.2	1.3	101.2	-1.7
